# MLL AF4-AF9 inh: inhibitors of human MLL-AF4/AF9 interaction | AID 651704 | inhibition, % at 10 µM | AlphaScreen, biotin-AF4 peptide binding to FLAG-AF9 | 0.47% of 350,000 active | P42568;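 active means every replicate reaching a set inhibition limit, whatever the replicate mean, cut at about 25% in these data; inconclusive means mean inhibition reaches that limit but some replicates miss it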;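 further: 0% = plate neutral control median and 100% = total signal loss; the record names both 10 and 1 µM as test concentration; the first replicate is given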
# Target sequence (P42568 whole entry, looked up): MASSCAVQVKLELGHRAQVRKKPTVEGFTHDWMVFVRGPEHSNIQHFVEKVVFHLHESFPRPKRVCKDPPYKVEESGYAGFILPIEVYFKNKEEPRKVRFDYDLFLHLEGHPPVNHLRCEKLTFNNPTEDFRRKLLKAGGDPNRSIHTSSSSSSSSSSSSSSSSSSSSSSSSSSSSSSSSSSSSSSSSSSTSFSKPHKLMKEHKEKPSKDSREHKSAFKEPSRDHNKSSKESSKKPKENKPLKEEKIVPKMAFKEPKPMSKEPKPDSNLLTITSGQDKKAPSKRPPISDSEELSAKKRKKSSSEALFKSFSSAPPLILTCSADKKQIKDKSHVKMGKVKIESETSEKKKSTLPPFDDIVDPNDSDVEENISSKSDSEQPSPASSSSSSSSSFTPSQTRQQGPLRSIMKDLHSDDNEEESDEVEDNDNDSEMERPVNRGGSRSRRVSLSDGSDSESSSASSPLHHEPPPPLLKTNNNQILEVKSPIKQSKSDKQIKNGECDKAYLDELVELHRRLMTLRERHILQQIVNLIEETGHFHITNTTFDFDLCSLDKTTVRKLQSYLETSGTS
# UCH37 DUB inh: inhibitors of human deubiquitinating enzyme UCH37 | purified proteasome/UCH37, Ub-AMC cleavage fluorescence | inhibition, % (no concentration beside the values) | 0.33% of 330,000 active | Q9Y5K5;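 active means mean of two replicates above 20%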;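 further: 0% = compound-free wells with enzyme and 100% = wells lacking proteasome; stock transfer was 100 nL into about 20 µL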
# Target sequence (Q9Y5K5 whole entry, looked up): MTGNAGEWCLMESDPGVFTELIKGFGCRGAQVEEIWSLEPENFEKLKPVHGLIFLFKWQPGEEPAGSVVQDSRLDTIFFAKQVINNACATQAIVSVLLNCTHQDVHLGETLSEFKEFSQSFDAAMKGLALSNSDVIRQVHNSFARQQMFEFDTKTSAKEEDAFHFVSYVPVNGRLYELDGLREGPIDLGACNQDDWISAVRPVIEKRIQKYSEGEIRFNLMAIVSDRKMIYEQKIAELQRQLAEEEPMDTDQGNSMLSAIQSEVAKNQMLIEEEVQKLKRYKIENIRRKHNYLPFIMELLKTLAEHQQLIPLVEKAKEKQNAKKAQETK
#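 system = Proteasome-associated human UCH37 deubiquitinase | amount = 0.15 nM proteasome as dispensed | medium = pH 7.4 Tris-HCl (50 mM) with ovalbumin, ATP-MgCl2, DTT | incubation = 30 min preincubation with enzyme, 25 min cleavage at room temperature | detection = AMC fluorescence 355/460 nm | read-out basis = percent inhibition | controls = no-proteasome and no-compound wells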
# E coli growth: blocks Escherichia coli growth; OD600, 23 h; stronger effect = lower value; OD600 absorbance (test concentration not listed); 0.21% of 330,000 active;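 active means OD600 absorbance below the run mean of sample wells minus 3.6 SD, in any replicate, cut at about 0.56 in these data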;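 further: stock transfer was 300 nL into about 60 µL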
# A1 inh: inhibitors of the anti-apoptotic protein A1, read as caspase activation; caspase activation, % (no concentration beside the values); 0.066% of 330,000 active; MEF A1-2A-BIM cells, Caspase-Glo 3/7 luminescence, 3 h; percent of clofoctol response, vehicle zero;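 active means over half of replicate activation scores above 10%, or exactly half above 10 with the replicate mean above 10; inconclusive means replicate mean below 10 yet half the replicates above 10; inactive means over half of replicates below 10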;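 further: wells of about 30 µL received 50 nL stock; many hits fall short of the cut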
# FGF22 binding: binders of recombinant human FGF22 by thermal shift; Q9HCT0; SYPRO orange fluorescence; percent of sucrose octasulfate shift, DMSO zero; calls only at 9.99 µM; 1.5% of 340,000 active; AID 651658;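 active means melting point raised past a set limit in the mean and every replicate; inconclusive means no clear call; three in four hits are not shown here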
# Target sequence (Q9HCT0 whole entry, looked up): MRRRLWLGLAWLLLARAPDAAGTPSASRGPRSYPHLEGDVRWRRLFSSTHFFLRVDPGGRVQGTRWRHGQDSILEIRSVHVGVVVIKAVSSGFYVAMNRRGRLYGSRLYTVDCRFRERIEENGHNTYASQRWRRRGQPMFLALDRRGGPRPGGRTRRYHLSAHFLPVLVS
# rRNA inh HTS: inhibitors of bacterial rRNA selective over humanized ribosomes; 1.6% of 350,000 active; E. coli WT GFP vs humanized-ribosome RFP mutants, fluorescence, 24 h; stronger effect = lower value; DMSO median 0, no signal -100; GFP signal change (wild-type ribosome), % (no concentration beside the values);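 active means significant combined selectivity score with lowered wild-type GFP, culture density cut under 30%, mutant RFP and density less affected; inactive means any of these conditions unmet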; further: one replicate is shown; some compounds called inactive have numbers as strong as hits
# T cruzi repl: blocks replication of Trypanosoma cruzi | T. cruzi beta-gal in NIH3T3, luminescence, 90 h | 1.4% of 300,000 active | inhibition, % (test concentration not listed);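 active means mean inhibition across valid replicates above about 55%, limit read from the data; inconclusive means mean below that limit but half or more replicates reach it; inactive means mean below it, under half of replicates reach it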;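 further: signal also drops with host cell toxicity which is not excluded here; 0% = plate median of DMSO wells and 100% = zero luminescence signal; higher percent means less beta-gal luminescence so fewer parasites; stock transfer was 50 nL into about 50 µL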
# Beta apoptosis: beta cell apoptosis inhibition; protection from apoptosis, % (no concentration beside the values); AID 435005; 0.8% of 300,000 active; INS-1E cytokine-induced death, ATP luminescence, 48 h; percent of positive-control rescue, neutral wells zero;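 active means all replicates at 75% or more, or half of them and the mean; inconclusive means half reach 75% but not the mean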;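 further: 0% = cytokine-treated negative control wells and 100% = positive control rescue; higher means more ATP so stronger rescue from cytokine killing; wells of about 40 µL received 100 nL stock; the first replicate is given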
# rRNA inh HTS OD600: also measured in rRNA inh HTS; calls as there; OD600 change, %; measured here: OD600 growth;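 optical density of the mix in the first replicate; 0 = DMSO median and -100 = no signal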
# rRNA inh HTS RFP: also measured in rRNA inh HTS; calls as there; RFP signal change, %; measured here: RFP humanized mutant strains;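 first replicate; 0 = DMSO median and -100 = no signal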
# * = called active by the depositor; i = inactive; ? = inconclusive; . = no result given.
SMILES,MLL AF4-AF9 inh,UCH37 DUB inh,E coli growth,A1 inh,FGF22 binding,rRNA inh HTS,rRNA inh HTS OD600,rRNA inh HTS RFP,T cruzi repl,Beta apoptosis
CN(C)c1ccc2nsnc2c1[N+](=O)[O-],3.5,.,.,0.5,i,.,.,.,10,-6
Cc1cc(C)c(C(=O)COC(=O)C2CC3CCCC(C2)C3=O)c(C)c1 (centres undefined),0.9,3.9,0.66,0.2,i,-10,-41,3.6,-12,-9
Cc1nnc(SCC(=O)NC2CCCC2)n1CCc1ccccc1,-4.1,-1.0,0.7,0.5,i,4,-2,0.1,-2,3
O=C(CSc1nnc(-c2ccccc2Br)o1)N1CCOCC1,-3.2,1.5,0.64,-0.6,i,-4,2,3.6,0,-8
O=C(CSc1nc(C2CC2)nc2ccccc12)Nc1ccccc1N1CCOCC1,-1.7,1.4,0.67,-0.4,i,-17*,-8.7*,5.4*,-14,-14
CN(C)c1ccc(/C=N/NC(=O)c2cc(=O)[nH]c3ccccc23)cc1,1.7,.,.,0.2,i,2,4,-1.1,-4,2
O=C(CSc1nnc(NC(=O)c2c(F)cccc2F)s1)NCc1ccc(F)cc1,-15,0.9,0.64,0.6,i,-1,-2,-1.8,-12,.
C[C@H]1C=C(C(=O)NCc2nc3ccccc3[nH]2)O[C@@H](OCc2ccc(CO)cc2)C1,-2.1,-0.3,.,0.4,i,-2,7,-5.5,7,0
O=C(CC(C(=O)O)N1CCOCC1)Nc1ccc(Cl)cc1 (centres undefined),.,3.1,0.69,0.7,.,.,.,.,1,3
CC(C)Cc1ccc(CN2CCCC(NC(=O)c3ccnn3C)C2)cc1 (centres undefined),1.4,2.9,0.66,0.1,i,-7,-8,0.0,49,7
COc1ccccc1NC(=O)C(C)OC(=O)CC1CCCCC1 (centres undefined),1.4,3.0,0.69,-0.6,i,5,6,1.4,.,1
Nc1c(C(=O)NC2CCCC2)c2nc3ccccc3nc2n1/N=C/c1cccnc1,-1.9,.,.,0.9,i,5,18,20,24,1
COc1ccc(S(=O)(=O)NCC2CCCN(C(=O)C=C(C)C)C2)cc1 (centres undefined),0.0,-2.2,0.67,0.4,i,-3,7,6.2,-4,-3
NC(=S)NNc1cc(Cl)cc(Cl)c1,.,1.9,0.67,0.1,.,.,.,.,11,-4
CCN(CC)CCCNC(=O)CSc1nc(C)cc(C)n1,-0.7,-1.2,0.68,-0.2,i,21,16,1.5,3,-1
Cc1onc(-c2ccccc2Cl)c1C(=O)Nc1ccc(F)c(F)c1,.,2.6,0.71,1.2,.,.,.,.,?,-11
CN(C)S(=O)(=O)c1ccc(N2CCCC2)c(C(=O)NC2CCC(O)CC2)c1 (centres undefined),0.8,5.9,0.68,-0.6,i,7,13,-0.3,14,0
CCOC(=O)C1CCN(c2c(NCc3ccc(C(=O)NC(C)CC)cc3)c(=O)c2=O)CC1 (centres undefined),.,1.0,0.71,-0.1,.,.,.,.,9,3
CCOCCOc1nc2c(c(=O)n(C)c(=O)n2C)n1Cc1ccc(C)cc1,8.2,4.8,0.77,0.9,i,8,7,2.8,4,2
C[n+]1ccccc1Nc1cc([N+](=O)[O-])ccc1N,-1.6,5.6,0.67,1.3,i,3,5,-0.5,-7,-1
COc1ccc(/C=N/NC(=O)c2ccc(NC(=O)C3CCCCC3)cc2)cc1O,-3.5,.,.,1.4,i,8,14,-0.6,-11,10
CC1(/[N+]([O-])=C/c2ccc(F)cc2)CCCCC1=O (centres undefined),-3.8,3.3,0.66,0.6,i,24,15,3.2,-9,-10
O=C(Cn1ncc2c(=O)oc3ccccc3c21)N1CCc2ccccc2C1,-0.7,6.5,0.72,0.2,i,2,2,3.3,-9,-2
O=C(COc1ccc2c3c(c(=O)oc2c1)CCC3)NC(Cc1ccc(Cl)cc1)C(=O)O (centres undefined),-2.9,-15,0.71,0.5,i,7,12,1.6,2,-5
COc1ccc(C)cc1NC(=O)NNC(=O)c1ccoc1C,-1.0,0.8,0.72,-1.4,i,4,4,-1.8,-14,-6
CNc1nc(C)nc(N/N=C/c2ccccc2)n1,-2.8,.,.,-0.1,i,9,14,-3.1,-8,-8
CCOc1ccc(Br)cc1C1=NN(C(C)=O)C(c2ccc([N+](=O)[O-])s2)O1 (centres undefined),-0.3,7.3,0.6,.,i,-19,-7,-8.2,49,.
COc1cccc(CN2CCNC(=O)C2CC(=O)NCCc2ccccn2)c1 (centres undefined),0.1,-0.3,0.67,0.9,i,11,12,2.6,-9,-5
CC(C)CCC(C)NC(=O)Cc1ccc(S(=O)(=O)N2CCOCC2)s1 (centres undefined),0.9,3.5,0.73,1.2,i,2,-11,-1.2,7,-2
CCC(=O)Nc1ccc(NC(=O)CSc2nnc(-c3ccco3)n2CC)cc1,0.7,4.1,0.7,0.4,i,4,12,0.2,3,-1
Cc1ccc(OCc2cc(C(=O)NC(C)Cc3cccnc3)no2)cc1C (centres undefined),0.0,5.8,0.67,0.8,i,-1,1,1.4,8,-7
CCc1nc(SCC(=O)Nc2cc(C)on2)c2c(=O)n(C)c(=O)n(C)c2n1,3.8,-0.1,0.68,1.2,i,-2,10,-5.6,-8,-10
CCOC(=O)c1c(CC(C)C)csc1N,-2.4,1.6,0.65,0.3,i,7,6,15,-21,-7
O=[N+]([O-])c1cc(C(F)(F)F)cc([N+](=O)[O-])c1NCc1cccnc1,-0.3,2.1,0.66,0.6,i,-1,15,1.2,26,3
CN1CCC(OC(=O)c2ccccc2Cl)CC1,1.6,1.5,0.7,-0.5,i,16,11,2.5,58*,2
CC(C)(C)NC(=O)NC(=O)COC(=O)C1CC(=O)N(Cc2ccccc2)C1 (centres undefined),.,1.5,0.66,1.3,.,.,.,.,11,4
Cc1ccc(CNS(=O)(=O)c2ccc(CN3C(=O)c4cccnc4C3=O)cc2)o1,-9.9,1.1,0.67,0.7,i,4,6,-0.9,-16,5
O=C(COC(=O)Cc1ccc(S(=O)(=O)N2CCOCC2)s1)NCc1ccccc1,.,4.6,0.7,-0.5,.,.,.,.,2,-2
CCOc1ccc(S(=O)(=O)Nc2cc(F)ccc2F)c2cccnc12,0.4,1.3,0.69,0.7,i,2,-11,-0.5,-7,-11
CCCCN1CC(=O)N2[C@H]3c4ccccc4OC[C@@H]3[C@H](c3ccccc3)[C@]2(C)C1=O,-1.7,4.4,.,0.3,i,-17,-20,3.9,.,3
Cc1ccc(C(=O)NCC(=O)OCC(=O)Nc2ccccc2C#N)s1,-1.3,-2.3,0.66,-0.2,i,3,10,3.8,-6,-4
CC1(C)CC(=NNC(=O)c2n[nH]c3c2CCC3)CC(C)(C)N1,-13,31*,0.69,1.9,i,6,3,2.2,8,0
COc1ccc(CC(=O)NC(=S)Nc2ccc(S(=O)(=O)NC(C)(C)C)cc2)cc1,.,2.4,0.69,-0.8,.,.,.,.,0,-2
CCCN(Cc1cc2ccccc2[nH]c1=O)C(=O)c1cccc([N+](=O)[O-])c1,-21,4.0,0.7,0.6,i,10,-2,4.9,7,-3
Cc1c(C(=O)NCC(C)C)sc2nc(-c3ccc(F)cc3)cn12,1.2,-0.3,0.76,-0.2,i,-7,8,-2.0,11,3
Cc1noc(C)c1C(=O)Nc1ccccn1,.,4.2,0.74,-0.6,.,.,.,.,-4,-1
O=C(NCCN1CCOCC1)c1ccc2c(c1)ncn2C1CCCCC1,.,7.1,0.71,0.5,.,.,.,.,-16,-10
CCOC(=O)N1CCN(C(=O)COc2ccc(Cl)cc2)CC1,4.7,0.7,0.7,0.9,i,9,8,5.4,-3,3
COc1cccc(CN(Cc2ccccc2F)S(=O)(=O)c2ccc(S(=O)(=O)NCc3ccccc3)cc2)c1,.,0.0,0.73,0.4,.,.,.,.,45,0
COc1cccc(/C=C/C(=O)OCC(=O)c2c(N)n(C)c(=O)n(C)c2=O)c1,0.7,-20,0.6,-1.3,i,6,6,-0.9,.,-5

# One compound at a time, from the list above.
# `Cc1noc(C)c1C(=O)Nc1ccccn1` is listed with MLL AF4-AF9 inh: .; UCH37 DUB inh: 4.2; E coli growth: 0.74; A1 inh: -0.6; FGF22 binding: .; rRNA inh HTS: .; rRNA inh HTS OD600: .; rRNA inh HTS RFP: .; T cruzi repl: -4; Beta apoptosis: -1
# `C[n+]1ccccc1Nc1cc([N+](=O)[O-])ccc1N` is listed with MLL AF4-AF9 inh: -1.6; UCH37 DUB inh: 5.6; E coli growth: 0.67; A1 inh: 1.3; FGF22 binding: i; rRNA inh HTS: 3; rRNA inh HTS OD600: 5; rRNA inh HTS RFP: -0.5; T cruzi repl: -7; Beta apoptosis: -1

# The list continues.
SMILES,MLL AF4-AF9 inh,UCH37 DUB inh,E coli growth,A1 inh,FGF22 binding,rRNA inh HTS,rRNA inh HTS OD600,rRNA inh HTS RFP,T cruzi repl,Beta apoptosis
COC(=O)Nc1ccc(OCC(=O)N2CCOCC2)cc1,.,2.0,0.69,-1.0,.,.,.,.,-9,-8
Cc1ccsc1CN(C)CC(=O)Nc1cccc(S(=O)(=O)N(C)c2ccccc2)c1,0.3,3.5,0.69,.,i,-15,-35,1.6,.,.
CCS(=O)(=O)N1Cc2ccccc2CC1C(=O)Nc1ccccc1OC (centres undefined),-0.7,3.7,0.71,-0.8,i,-2,2,-10,-11,-3
CCOC(=O)c1nc2c(=O)n(C)c(=O)n(C)c2n(C)c1=O,-2.5,-112,0.69,0.0,i,15,9,1.7,-10,-4
CCOC(=O)c1sc(C)c(C(N)=O)c1NC1=NCCCCC1,2.4,-10,0.65,0.1,i,2,2,-3.2,-7,-14
Cc1ccc(C2/C(=C(/O)c3ccc(Cl)cc3)C(=O)C(=O)N2CC2CCCO2)o1 (centres undefined),.,0.7,.,1.0,.,.,.,.,-4,-3
O=C(N/N=C\c1ccc(O)c([N+](=O)[O-])c1)C1COc2ccccc2O1 (centres undefined),-3.7,.,.,0.3,i,11,12,-4.5,-5,-1
Cc1ccc(C(=O)C(C)OC(=O)c2cc3cc([N+](=O)[O-])ccc3oc2=O)cc1 (centres undefined),3.1,6.5,0.68,-0.1,i,6,-3,-1.5,9,-5
CCC(C)NC(=O)C1c2ccccc2C(=O)N1Cc1ccccc1 (centres undefined),1.6,1.1,0.67,-9.9,i,4,4,-4.8,-11,-9
Cc1ccccc1C(=O)N1CCc2ccccc2C1,5.3,5.9,0.69,-0.7,i,-12,4,1.1,2,-10
COc1cccc(CNC(=O)c2n[nH]c3ccccc23)c1,0.0,1.0,0.67,-1.2,i,-6,4,-1.8,-11,-1
Cc1ccsc1C(=O)N1CCCC(CCC(=O)NCc2ccc(F)c(F)c2)C1 (centres undefined),-6.1,3.3,0.63,0.1,i,-13,-8,-2.8,-8,-2
COc1ccc(-n2cnc3cc(C(=O)NC4CCCC4)ccc32)cc1,.,3.1,0.72,?,.,.,.,.,-2,-6
O=c1c2c3c(sc2nc2n1CCCCC2)CCCC3,.,3.6,0.71,-4.2,.,.,.,.,19,4

# Assay outcomes from PubChem BioAssay.

# The list is partial; the hit share may differ from the screen's.
